Sa helicase inh = blocks Staphylococcus aureus DNA helicase; purified S. aureus helicase, fluorescence unwinding assay; about half of the hits fall short of the stated cut; inhibition, %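 (tested at about 80 µM)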; hit rate 0.05% among 120,000; AID 485395;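 active = both duplicates at 50% or more, or one of them with a favoured structure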;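 note: 0% = mean of negative control wells and 100% = mean of positive control wells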
MgrA DNA FP = modulators of Staphylococcus aureus MgrA DNA binding | hit rate 0.13% among 84,000 | fluorescence polarization | inhibition, %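 (about 10 µg/mL by stock and volumes)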;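 active = above 50% in either of two replicates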;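 note: 0% = protein plus DNA without compound and 100% = DNA alone without protein; higher means less MgrA bound to DNA so lower polarization; one replicate is shown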
Active calls of the source: *; . = not tested or not shown.

Sa helicase inh | MgrA DNA FP | Structure
15.0 | . | Cc1cc(C)cc(NC(=O)N2CCC(CN3CCCCC3)CC2)c1
15.0 | . | O=S(=O)(/C=C/c1ccccc1)NC1CCCCC1
12.0 | -0.1 | N#Cc1ccc(CSCC(=O)NN=C2CCCC2)cc1
-31.0 | . | COc1ccc(C(CNc2ncnc3sccc23)N2CCCC2)cc1 (stereo not drawn)
1.0 | 2.3 | COc1cc(/C=C2\N=C(SC)SC2=O)cc(OC)c1OC(C)=O
. | 3.5 | N/C(=N\OC(=O)C(Cl)Cl)c1ccc(OCc2ccccc2)cc1
7.0 | -0.8 | NC(N)=N/N=C/c1ccco1
6.0 | 9.2 | c1ccc(-c2nn3c(C4COc5ccccc5O4)nnc3s2)nc1 (stereo not drawn)
-22.0 | 0.2 | c1ccc(CCNc2nc3ccccc3s2)cc1
-11.0 | . | Cc1cc(C2=NNC(=Nc3ccccc3)SC2)c(C)n1Cc1ccco1
17.0 | . | Cc1cc(NC(=O)CSc2nc3ccsc3c(=O)n2CCCC(=O)NCc2ccc3c(c2)OCO3)n[nH]1
6.0 | -1.6 | CCN(CC)C(=O)CSc1nnc(COc2cccc(OC)c2)n1CC
0.0 | 0.2 | CC(C)C(c1nnnn1C1CCCC1)N1CCOCC1 (stereo not drawn)
16.0 | . | CC(C)NC(=O)N1CC2CCCN2c2ccccc21 (stereo not drawn)
-10.0 | . | O=C(O)c1ccc2c(c1)-c1ccccc1C2
6.0 | . | CCOc1ccc(CCNC(=O)c2nnc(CS(=O)(=O)c3ccccc3)o2)cc1OCC
6.0 | . | Cc1ccc(-c2nc(N)s[n+]2-c2ccccc2)cc1
16.0 | . | CC(C)N(Cc1ccccc1)C(=S)NCCN1CCOCC1
. | 1.9 | C=C(c1ccccc1)c1ccc(OC)cc1
0.0 | 0.9 | C=CCOc1nc(F)c(Cl)c2c1Oc1cc(Br)c(Br)cc1O2

Looked up one by one from above, 6 records:
Sa helicase inh | MgrA DNA FP | Structure
-22.0 | 0.2 | c1ccc(CCNc2nc3ccccc3s2)cc1
12.0 | -0.1 | N#Cc1ccc(CSCC(=O)NN=C2CCCC2)cc1
15.0 | . | O=S(=O)(/C=C/c1ccccc1)NC1CCCCC1
1.0 | 2.3 | COc1cc(/C=C2\N=C(SC)SC2=O)cc(OC)c1OC(C)=O
. | 3.5 | N/C(=N\OC(=O)C(Cl)Cl)c1ccc(OCc2ccccc2)cc1
6.0 | 9.2 | c1ccc(-c2nn3c(C4COc5ccccc5O4)nnc3s2)nc1 (stereo not drawn)

3 entries already listed, ordered by the number in Sa helicase inh, ascending.
SMILES	Sa helicase inh
C=CCOc1nc(F)c(Cl)c2c1Oc1cc(Br)c(Br)cc1O2	0.0
COc1cc(/C=C2\N=C(SC)SC2=O)cc(OC)c1OC(C)=O	1.0
CC(C)N(Cc1ccccc1)C(=S)NCCN1CCOCC1	16.0

Carrying on.
Sa helicase inh | MgrA DNA FP | Structure
. | 2.8 | CCC(CO)NC(=S)Nc1cc(C(F)(F)F)cc(C(F)(F)F)c1 (stereo not drawn)
-6.0 | . | COc1ccc(-c2nc(CSc3nc(C)c(C)n3C3CCCC3)cs2)cc1OC
. | -0.1 | COc1ccc(C2C3=C(CCCC3=O)OC3=C2C(=O)CCC3)cc1OC
12.0 | 0.3 | C=CCc1cc(C(=O)N2CCCCC2)ccc1O
-25.0 | . | O=C(CCc1nc2cccnc2n1Cc1cccs1)Nc1cccc(Br)c1
-4.0 | . | CCNC(=S)Nc1ccc(NC(=S)NCC)cc1
10.0 | . | COc1ccc(C(=O)ON=C2CCN(C)CC2)cc1
14.0 | . | O=C(c1ccco1)N(O)c1ccccc1
-10.0 | . | Cc1csc(SCC(=O)NN2C(=O)NC3(CCCCC3)C2=O)n1
7.0 | 2.0 | CCCc1nc2c(o1)NC(N)=C(C#N)C2c1ccc(OC(C)C)c(OC)c1 (stereo not drawn)
3.0 | 1.0 | CC1=C(C#N)C(c2cccnc2)C2=C(CC(c3ccc(Cl)cc3)CC2=O)N1 (stereo not drawn)
9.0 | . | CCOC(=O)N1CCN(C(=O)c2sc3nc(-c4ccc(F)cc4)cn3c2C)CC1
. | 2.1 | CCOC(=O)CC(=O)Nc1c(C)csc1C(=O)OC
-16.0 | . | CN(C)c1cccc(C(=O)OCC(=O)c2cc3ccccc3o2)c1
-4.0 | . | CC(C)C(=O)OCC(=O)Nc1ccc(C#N)cc1
-5.0 | 0.6 | CC(=O)Nc1cccc(C(=O)N(C)c2ccccc2)c1
. | 1.5 | Cc1cc(-c2ccc(/C=C3\SC(=S)N(CC(=O)O)C3=O)o2)ccc1[N+](=O)[O-]
28.0 | . | CC1CC(C)(C)CC2(C1)NC(=O)N(Cc1cccc(S(=O)(=O)N(C)C)c1)C2=O (stereo not drawn)
-17.0 | -0.5 | CCCN(CC1CC1)C(=O)c1cc(=O)c2ccccc2o1
. | -1.2 | Cc1cc(=O)n(CCO)c(=O)[nH]1

Structures from the list above that contain bromine (2):
Sa helicase inh | MgrA DNA FP | Structure
0.0 | 0.9 | C=CCOc1nc(F)c(Cl)c2c1Oc1cc(Br)c(Br)cc1O2
-25.0 | . | O=C(CCc1nc2cccnc2n1Cc1cccs1)Nc1cccc(Br)c1

(more compounds)
Sa helicase inh | MgrA DNA FP | Structure
. | 0.8 | Cc1nc(N)nc(N/N=C/c2ccccc2O)n1
-12.0 | . | Cc1ccc(NC(=O)C(C)OC(=O)Cc2coc3cc(C)ccc23)cc1 (stereo not drawn)
12.0 | . | Cc1noc(C)c1CCOC(=O)c1cc(-c2ccc(Br)cc2)nc2ccccc12
5.0 | 1.1 | Cc1cc(C)nc(NC(=O)/C=C/c2ccccc2Cl)n1
-2.0 | . | O=C(CCCN1C(=O)S/C(=C\C=C\c2ccccc2)C1=O)Nc1cccc(O)c1
. | 0.0 | CS(=O)(=O)Nc1cc(NS(C)(=O)=O)cc(C(F)(F)F)c1
6.0 | -3.0 | O=C(O)CCCn1cc(NC(=O)c2ccco2)cn1
9.0 | -4.0 | COc1ccc(CNCC#N)cc1OC
10.0 | . | CCOC(=O)c1nn(-c2cc(C(=O)OC)cc(C(=O)OC)c2)cc1O
4.0 | . | O=C(c1ccco1)N1CCN(C(c2ccccc2)c2sc3ncnn3c2O)CC1 (stereo not drawn)
. | -1.5 | CC(=O)OC[C@H]1O[C@H](O[C@H]2[C@H](OC(C)=O)[C@@H](OC(C)=O)[C@H](OC(C)=O)O[C@@H]2COC(C)=O)[C@H](OC(C)=O)[C@@H](OC(C)=O)[C@@H]1OC(C)=O
6.0 | 2.0 | C=CCN(CC=C)S(=O)(=O)c1ccc(C(=O)Nc2nc3c(s2)CC(C)CC3)cc1 (stereo not drawn)
. | -0.8 | CC(=O)CC(c1ccc([N+](=O)[O-])cc1)c1c(O)c2ccccc2oc1=O (stereo not drawn)
7.0 | -0.2 | CCOC(=O)c1[nH]c(C)c(CC(C)C)c1C
15.0 | . | CC(Sc1nc2ccccc2s1)C(=O)Nc1nnc(-c2ccccc2)s1 (stereo not drawn)
-16.0 | . | Cc1cc(C(=O)CSc2nc(N)cc(N)n2)c(C)n1C
3.0 | -0.3 | O=C(c1ccccc1)c1nnc(-c2ccccc2)o1
. | 2.3 | N#C/C(=C\c1ccc(O)cc1)c1ccc([N+](=O)[O-])cc1
9.0 | 3.9 | CCOc1cc(/C=C2/SC(=N)N(c3nccs3)C2=O)ccc1OCCN1CCOCC1
. | -1.0 | CS(=O)(=NS(=O)(=O)c1cccs1)c1ccc(OC(=O)c2ccc(Cl)cc2)cc1 (stereo not drawn)
0.0 | . | CCCn1c(C)cc(C(=O)CSc2ncn[nH]2)c1C
23.0 | . | Cc1cccc(OCCOC(=O)c2ccccc2O)c1
2.0 | 0.8 | N#C/C(=C1\CCCN1)c1nc2ccccc2s1
5.0 | 0.2 | COc1ccc(-c2csc(C(C#N)=C3CCCC3)n2)cc1
20.0 | -13.2 | COc1cc2c(cc1OC)C(c1cc3cc4c(cc3[nH]c1=O)OCO4)N(C(=O)C1CCC1)CC2 (stereo not drawn)
14.0 | . | N#Cc1nc(-c2ccccc2)oc1N1CCN(C(c2ccccc2)c2ccccc2)CC1
12.0 | . | CSc1nc(C)cc(Oc2ccc(=O)n(C)n2)n1
. | 0.3 | Fc1ccc(C2Nc3ccc4ccccc4c3C3C=CCC32)cc1 (stereo not drawn)
4.0 | 9.2 | CCOc1ccc(C(=S)N2CCN(C)CC2)cc1
10.0 | . | Cc1ccc(-n2c(N)c(C(=O)NCC(C)C)c3nc4ccccc4nc32)cc1
21.0 | . | C=C1c2ccccc2NC(=S)N1c1ccc(OC)cc1
-5.0 | 2.1 | N#C/C(=C\c1ccc[nH]1)C(=O)N1CCc2ccccc2C1
8.0 | 1.0 | O=C1NC(c2ccc(O)cc2)C(C(=O)c2ccccc2)C(O)(C(F)(F)F)N1 (stereo not drawn)
34.0 | . | Cc1noc(C)c1COc1ccc(CC(=O)NC2CCCc3ccccc32)cc1 (stereo not drawn)
18.0 | . | O=C1OCCC1Oc1ncnc2ccccc12 (stereo not drawn)
2.0 | 1.9 | Cc1ccc2[nH]cc(C(=O)N3CCCCC3)c(=O)c2c1
-3.0 | . | CC(=O)Nc1cccc(C(=O)Nc2ccc(N3CCCCC3)cc2)c1
-9.0 | . | COC(=O)c1ccc(CNC(=O)Cn2cnnn2)cc1
. | -0.8 | COc1cccc(C2Nc3ccccc3S2)c1OC (stereo not drawn)
-5.0 | . | CC(=O)NCc1ccc(C(=O)CSc2nnc(-c3ccoc3C)n2C)s1
1.0 | 1.6 | CCOC(=O)C1=C(c2ccccc2)NC(=O)NC1c1ccc(OC)c(OC)c1 (stereo not drawn)
0.0 | -4.0 | CCC1(c2ccccc2)NC(=O)NC1=O (stereo not drawn)
-9.0 | . | N#Cc1cccc(C(=O)NCC(F)(F)F)c1
-18.0 | -0.1 | COc1ccccc1CNC(=O)c1ccc2nc3c(cc2c1)CCS3
14.0 | . | CCN(Cc1ccccc1)C(=O)Cn1c(=O)n(-c2ccc(OC)cc2)c(=O)c2ccccc21
3.0 | 0.1 | Cc1ccccc1NC(=S)N1CCC(N(C)C(C)C)CC1
-3.0 | 1.4 | O=C(CC(c1ccco1)C1CCCCC1=O)c1ccco1 (stereo not drawn)
8.0 | 0.5 | CC(NS(=O)(=O)c1ccccc1)c1ccccc1 (stereo not drawn)
. | -1.4 | O=C1CC(CSc2ccc(Cl)cc2)=NN1
. | -1.3 | O=C1c2ccccc2-c2c1cccc2C(=O)N1CCCCC1
2.0 | -2.6 | Nc1cc(=O)[nH]c(SCC(=O)N2CCc3ccccc32)n1
. | -1.4 | COc1ccc(C(=O)NCc2c(-c3ccccc3)noc2C)cc1
10.0 | 10.5 | CC(C)N(Cc1nc(-c2ccccc2)no1)C(=O)c1ccccc1
3.0 | 0.6 | CC1CCCC(C)N1C(=O)COC(=O)/C=C/c1ccco1 (stereo not drawn)
8.0 | -6.8 | O=C1CC(CSc2nnnn2-c2ccccc2)=NN1
14.0 | . | Cc1[nH]c2ccccc2c1C(=O)CN1CC(C)OC(C)C1 (stereo not drawn)
-4.0 | . | Nc1cccc(NC(=O)c2ccccc2)c1
16.0 | . | N#CC(c1ccccc1)C12CC3CC(CC(C3)C1)C2 (stereo not drawn)
8.0 | -7.7 | Cc1ccc(C(C)C)c(OCc2ccc(N)cc2)c1
11.0 | . | O=C(/C=C/Nc1ccccc1)C(F)(F)F

New compounds follow
Sa helicase inh | MgrA DNA FP | Structure
12.0 | . | CCCn1nc(C(=O)NCCN2CCOCC2)c2ccccc2c1=O
-6.0 | . | CC(C)=CCCC1=CCC(/C=N/NC(N)=O)C(C)C1 (stereo not drawn)
5.0 | -1.8 | COc1ccc(C=Nc2ccc3[nH]c(=O)[nH]c3c2)cc1OC
. | -1.0 | O=S(=O)(CCN1CCN(CCS(=O)(=O)c2ccccc2)CC1)c1ccccc1
13.0 | -1.0 | NC(=O)COc1ccc(S(=O)(=O)N2CCCCC2)cc1
10.0 | . | CS(=O)(=O)Nc1ccc2[nH]c(=O)c(=O)[nH]c2c1
8.0 | . | O=C(NC1CCCC1)c1cccc2c1C(=O)N(C1CCCCC1)C2
0.0 | -2.7 | CC1CCN(C(=O)COC(=O)Cc2ccc(Cl)cc2)CC1
4.0 | 0.0 | O=C(CSc1ncn[nH]1)N1CCOCC1
-20.0 | . | C=CCn1c(=N)c(C(=O)NCC2CCCO2)cc2c(=O)n3cccc(C)c3nc21 (stereo not drawn)
8.0 | -2.3 | CCSc1nnc(CCNC(=O)Nc2ccc(Cl)cc2C(F)(F)F)n1C
-6.0 | 3.0 | O=C(O)C1C2C=CC(C2)C1C(=O)Nc1cccc(Br)c1 (stereo not drawn)
13.0 | . | Cc1cc(NC(=O)c2cc(=O)c3ccccc3o2)no1
-8.0 | . | NC(=O)C1CCN(C(=O)c2ccc3c(c2)S(=O)(=O)c2ccccc2C3=O)CC1
-12.0 | . | O=C(CNC(=O)C1CCCCC1)Nc1ccc(S(=O)(=O)NCc2ccco2)cc1
-7.0 | -3.2 | O=C(O)C1CCCCC1C(=O)Nc1cccc(F)c1 (stereo not drawn)
28.0 | 1.1 | O=S(=O)(NC1=NCCCCC1)c1ccc2ccccc2c1
2.0 | . | Nc1nc(COC(=O)C2CCN(S(=O)(=O)c3c(Cl)cccc3Cl)CC2)nc(Nc2ccccc2)n1
9.0 | -0.9 | Cc1ccc(S(=O)(=O)NC2=NCN(CCN3CCOCC3)CN2)cc1
-8.0 | 10.3 | CCCC1C2CN(C(C)C)CC=C2C(C#N)=C(N)C1(C#N)C#N (stereo not drawn)
. | -0.9 | COC(=O)c1sccc1N/N=C(\C#N)C(=O)c1cccs1
5.0 | . | N/C(=N\O)c1cn(Cc2ccccc2Cl)c2ccccc12
2.0 | -6.0 | CCC(Oc1ccccc1C)C(=O)O (stereo not drawn)
24.0 | . | OCC(O)/C=N/Nc1nc2ccccc2s1 (stereo not drawn)
-26.0 | 6.3 | O=C1N/C(=N\Nc2ccccc2)S/C1=C\c1ccccc1

Assay outcomes (PubChem BioAssay)

A portion of the library (hit frequency here may not be typical).
